Source: PubChem BioAssay
GALR2 ag: GALR2 receptor agonists, primary screen, cell-based; Galanin receptor type 2 (Homo sapiens), O43603; GALR2-expressing cells, agonist activation read-out; activation, %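 (tested at 5 µM)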; 140,000 tested, 0.48% active;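 active means above mean plus 3 SD of all compounds, about 5% in these data, not always enough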;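 further: 0% = vehicle buffer wells and 100% = reference agonist at full effect; tested in CHO reporter cells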
Target sequence (O43603 whole entry, looked up): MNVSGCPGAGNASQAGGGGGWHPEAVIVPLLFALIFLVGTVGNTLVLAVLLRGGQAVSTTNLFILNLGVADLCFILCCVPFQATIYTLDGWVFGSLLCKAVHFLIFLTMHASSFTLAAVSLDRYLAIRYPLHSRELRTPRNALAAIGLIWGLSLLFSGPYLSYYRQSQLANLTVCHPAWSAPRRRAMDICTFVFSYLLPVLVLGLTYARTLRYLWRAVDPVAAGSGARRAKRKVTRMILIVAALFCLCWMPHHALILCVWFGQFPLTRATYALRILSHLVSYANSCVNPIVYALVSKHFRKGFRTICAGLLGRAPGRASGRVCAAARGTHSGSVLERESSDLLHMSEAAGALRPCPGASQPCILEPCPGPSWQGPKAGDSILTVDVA
INS promoter inh: inhibitors of insulin promoter-driven GFP, primary screen, imaging, TRM-6 cells (human fetal islet line), eGFP reporter, cell count; reporter expression induced with tamoxifen; inhibition, % at 2 µM; 130,000 tested, 0.9% active;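 active means inhibition above the mean plus 3 SD, with well images judged a real hit on visual review, cut at about 60% in these data, passing the limit was not always enough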
PKD1 inh: inhibitors of human PKD1 kinase, biochemical, fluorescence polarization. PKD1 kinase fluorescence polarization assay. Serine/threonine-protein kinase D1 (Homo sapiens), Q15139. inhibition, %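 (about 10 µM by stock and volumes)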. AID 797, 2007. 200,000 tested, 0.056% active;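 active means inhibition of 50% or more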;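 further: controls were vehicle for no effect and a reference inhibitor for full effect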
RGS16-Gao HTS: modulators of RGS16 binding to Galphao, primary screen, biochemical, human proteins, multiplexed bead flow cytometry; Regulator of G-protein signaling 16 (Homo sapiens) + Guanine nucleotide-binding protein …; bead-based flow cytometry RGS16-Galphao binding, fluorescence; actives lie on both sides; binding response (% of control), % at 10 µM; 220,000 tested, 0.38% active; AID 1441, 2008;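 active means below 25% or above 175%, edge rows of some plates excepted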;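 further: Galphao activated by GDP with aluminum fluoride before binding; 100% = wells without compound and 0% = beads without RGS; some results beyond the cut were filed as inactive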
Target sequence (O15492 whole entry, looked up): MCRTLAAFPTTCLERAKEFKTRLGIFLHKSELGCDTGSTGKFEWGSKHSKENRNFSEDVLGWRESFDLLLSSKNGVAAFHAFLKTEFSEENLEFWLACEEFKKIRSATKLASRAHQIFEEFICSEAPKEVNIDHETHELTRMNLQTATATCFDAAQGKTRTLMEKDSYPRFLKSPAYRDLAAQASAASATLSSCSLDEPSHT
Target sequence (P09471 whole entry, looked up): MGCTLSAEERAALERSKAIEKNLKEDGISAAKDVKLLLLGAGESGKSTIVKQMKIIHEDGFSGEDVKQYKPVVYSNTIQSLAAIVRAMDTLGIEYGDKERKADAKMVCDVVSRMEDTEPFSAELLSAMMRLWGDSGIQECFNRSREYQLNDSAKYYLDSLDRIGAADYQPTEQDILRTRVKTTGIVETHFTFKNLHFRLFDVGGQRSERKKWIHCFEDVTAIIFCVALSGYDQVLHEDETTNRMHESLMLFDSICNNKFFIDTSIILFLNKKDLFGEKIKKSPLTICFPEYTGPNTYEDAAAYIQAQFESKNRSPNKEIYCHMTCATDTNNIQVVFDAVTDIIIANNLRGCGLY
HSV augment: enhancers of HSV replication in host cells, fold increase, host cell viability. HSV replication augmentation in cells. maximum fold increase. 220,000 tested, 0.005% active;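 active means peak rise of 1.5-fold or more in the series; tested in PC3 cells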;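 further: first round at 10 µM; read as green reporter fluorescence; hits show the peak of a series up to 25 µM; 1 = signal of infected wells without compound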
INS promoter inh cell count: recorded beside INS promoter inh, whose call it bears; normalized cell count, %; measured here: cell count, toxicity; reference of the scale not given here;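 cells exposed to compound for 48 h; stained nuclei by imaging scaled within each plate; lower means fewer cells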
HSV augment primary fold: further read-out of HSV augment, marked with its call; fold increase; compound at 10 µM; measured here: primary screen fold increase 10 uM; tested in PC3 cells;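 GFP signal in the first replicate; 1 = infected wells without compound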
* = called active by the depositor; i = inactive; x = not tested or not shown. This is a random part of the collection; overall some 1.3% were active at least once.

item	Compound	GALR2 ag	INS promoter inh	INS promoter inh cell count	PKD1 inh	RGS16-Gao HTS	HSV augment	HSV augment primary fold
1	CCn1c(SCC(=O)N2CCCc3ccccc32)nc2ccccc2c1=O	1.2	27	157	-8	106	i	0.93
2	COc1ccc(-c2noc(-c3ccoc3C)n2)cc1OC	x	-14	31	-5	113	i	0.74
3	Cc1ccc(/C=C/C(=O)Nc2ccc(O)c3c(=O)cc(-c4ccccc4Cl)oc23)cc1	x	x	x	x	98	i	0.91
4	O=C(CSc1nccn1-c1ccc(F)cc1)NCc1ccc2c(c1)OCO2	-1.5	33	84	-2	100	i	0.91
5	Cc1cc(Nc2cccc(Cl)c2)nc(N2CCOCC2)n1	0.3	50	136	2	114	x	x
6	N/C(=N\O)c1cccc(CS(=O)(=O)c2ccccn2)c1	x	x	x	x	100	i	1.1
7	CSCc1nc2sc(C(=O)Nc3nc(C)cs3)c(C)c2c(=O)[nH]1	x	-55	104	-1	108	i	1
8	OCCC1CN(Cc2ccc3nsnc3c2)CCN1C1CCCC1 (configuration not stated)	x	x	x	-6	115	i	1.1
9	CC(=O)Nc1ccc(S(=O)(=O)NCc2ccc(C(=O)NCc3ccc4c(c3)OCO4)cc2)cc1	-0.3	x	x	-1	65	i	0.97
10	Cc1ccccc1CN(c1ccc(C(=O)N2CCCC2)cc1)S(C)(=O)=O	1.2	38	138	-7	104	i	1.2
11	O=C(NCCCN1CCOCC1)c1cc2cc(Br)ccc2oc1=O	0.9	7	154	2	101	i	1
12	O=C(/C=C/C=C/c1ccccc1)c1ccco1	x	x	x	x	121	i	1
13	Cc1cc(Nc2ccccc2)n2nc(C)c(-c3ccccc3)c2n1	x	x	x	x	104	i	1
14	Cc1ccc(-c2nc3ccccc3s2)cc1NC(=O)c1cc(-n2cnnc2)ccc1Cl	-3.0	x	x	1	96	i	0.7
15	CCOc1cc(/C=C2\SC(=Nc3ccc(F)cc3)N(c3ccc(F)cc3)C2=O)ccc1OCC(=O)O	x	13	90	3	104	i	1.1
16	CC(C)N(C(=O)CSc1nnc(-c2ccc3c(c2)OCO3)n1C)C(C)C	x	-36	91	-1	69	i	0.99
17	CCS(=O)(=O)n1nc(-c2ccc(OC)cc2)nc1N	x	-19	137	-3	106	i	0.88
18	COc1cccc(C2N(c3ccc(Cl)c(Cl)c3)C(=O)C3CCCN32)c1OC (configuration not stated)	-2.1	x	x	-9	186	i	0.98
19	CC(C)OP(=O)(c1ccc(N(C)C)cc1)C(Nc1ccccc1)c1ccccc1 (configuration not stated)	x	x	x	x	105	i	0.97
20	O=C(NNC1CC(=O)N(c2ccc3c(c2)OCCO3)C1=O)c1ccccc1 (configuration not stated)	-1.8	40	54	19	102	i	1
21	Cc1ccc(NC(=S)NC2CCN(Cc3ccccc3)CC2)c(C)c1	-0.1	-150	118	-9	101	i	0.84
22	Cc1ccc(S(=O)(=O)CCN2CCC(n3cccc3)CC2)cc1	x	x	x	x	104	i	1.1
23	CCCOc1ccc(N2C(=O)CC(S/C(N)=N/N=C(\C)c3cccs3)C2=O)cc1 (configuration not stated)	-1.6	38	116	3	101	i	1
24	O=C(Nc1ccc(F)cc1F)N1CCCN(c2ccc(C(F)(F)F)cn2)CC1	x	x	x	x	92	i	1
25	O=[N+]([O-])c1ccc(-c2cnc(NO)nc2)cc1	-1.4	66	117	13	97	i	0.9
26	O=C(C1CC(c2ccccc2O)=NO1)N1CCCCC1 (configuration not stated)	-1.2	14	134	8	103	i	0.97
27	O=C(Nc1ccccc1F)c1ccn[nH]1	x	-14	114	-7	96	i	0.96
28	Cc1[nH]n(-c2ccc([N+](=O)[O-])cc2)c(=O)c1C=NCCN1CCN(C(=O)c2ccc(F)cc2)CC1	2.4	-29	98	4	101	x	x
29	Cc1ccc(-c2noc(-c3ccoc3C)n2)cc1	x	x	x	5	93	i	1
30	Clc1ccc(Cn2ncc3c(NCc4ccccc4)ncnc32)cc1	-2.4	-3	106	10	100	i	0.87
31	COCC(=O)n1nc(-c2ccccc2)nc1NCc1cccs1	x	x	x	-1	95	i	1
32	COc1cccc(-c2cc(C(=O)NCc3ccc(Cl)cc3)no2)c1	-1.4	-72	116	4	102	i	0.92
33	NC(=S)N/N=C/c1ccc(-c2cc(Cl)c(Cl)cc2Cl)o1	x	x	x	-8	103	i	1.2
34	O=C(Nc1nnc(-c2ccc(Cl)cc2)o1)Nc1ccccc1F	x	x	x	x	100	i	1
35	CN1C(=O)N(C)C2C1N(C)S(=O)(=O)N2C (configuration not stated)	-0.7	3	109	-11	111	i	1
36	CCOc1cc(C(=O)Nc2ccc3c(c2)OCO3)ccc1OCCOc1ccccc1Cl	-0.9	11	56	-2	65	i	0.93
37	CC(/C=N/n1c(-c2cccnc2)n[nH]c1=S)=C\c1ccco1	x	x	x	x	105	i	0.96
38	C/C(=N\OC(=O)NC(C)C)c1sc(-c2ccccc2)nc1C	-1.3	-30	141	-9	92	i	0.82
39	CC(C)NC(=S)N=Nc1c(O)[nH]c2ccc(C(C)C)cc12	-1.1	x	x	-4	93	i	0.94
40	O=C(NNc1ccc(O)cc1)c1ccc(Br)cc1	x	x	x	1	101	i	1.1

Overlap with the part before: 4 compounds, then new ones.
item	Compound	GALR2 ag	INS promoter inh	INS promoter inh cell count	PKD1 inh	RGS16-Gao HTS	HSV augment	HSV augment primary fold
37	CC(/C=N/n1c(-c2cccnc2)n[nH]c1=S)=C\c1ccco1	x	x	x	x	105	i	0.96
38	C/C(=N\OC(=O)NC(C)C)c1sc(-c2ccccc2)nc1C	-1.3	-30	141	-9	92	i	0.82
39	CC(C)NC(=S)N=Nc1c(O)[nH]c2ccc(C(C)C)cc12	-1.1	x	x	-4	93	i	0.94
40	O=C(NNc1ccc(O)cc1)c1ccc(Br)cc1	x	x	x	1	101	i	1.1
41	CCCCNC(=O)c1ccc(/C=C2\Oc3ccccc3N(C)C2=O)cc1	x	15	150	3	102	i	0.95
42	N/C(CC(=O)NCCOc1ccccc1)=N\O	-0.2	8	172	-3	104	i	0.66
43	CC(C)C(=O)Nc1ccc2c(c1)nc1n2CCSC1	-1.7	76*	75*	-2	99	i	1.1
44	CCOC(=O)C(C)Oc1cccc2c(=O)n(CC(=O)Nc3cccc(OC)c3)ccc12 (configuration not stated)	-2.3	x	x	3	185	i	0.92
45	CC1Cn2c(nc(=O)c3c2NCN(CCc2ccccc2)C3)S1 (configuration not stated)	x	67	88	2	170	i	1
46	CCn1c2ccccc2c2cc(CC(N)=O)ccc21	x	x	x	x	104	i	0.88
47	C/C(Cn1nc([N+](=O)[O-])cc1C)=N\NC(=O)c1cccc(Br)c1	-1.8	x	x	-4	84	i	0.81
48	Cc1cccc(C(=O)N[C@H](C(=O)Nc2nc(C)cs2)C(C)C)c1	-0.8	-5	54	-9	103	i	1
49	Cn1cccc1Cc1nnc(SCC(=O)Nc2ccc(F)cc2F)n1-c1ccc(F)cc1	-0.6	x	x	-6	100	i	0.87
50	c1ccc(Nc2nc3ccccc3[nH]2)nc1	-2.4	6	96	-4	108	i	1.1
51	CCc1ccc(NC(=O)c2cnc3n(c2=O)CCS3)cc1	-2.9	x	x	-3	108	i	1.1
52	CCN(CC)c1ccc(NC(=S)NC(=O)c2ccco2)cc1	x	x	x	-7	107	i	0.93
53	Cc1ccc(CC(=O)N2CCN(c3ccccc3F)CC2)cc1	x	-36	108	-8	95	i	0.91
54	NS(=O)(=O)c1ccc(N/C=C\C(=O)c2cccc3ccccc23)cc1	-0.7	x	x	-6	94	i	1.1
55	O=[N+]([O-])c1ccc(COc2ccccc2/C=N/O)cc1	0.4	i	37	2	22*	i	0.97
56	Cc1ccc(S(=O)(=O)N2CCOCC2)cc1C(=O)N1CCOCC1	0.6	21	165	5	106	i	1.1
57	CCc1ccc(C(=O)NCc2cnn(C)c2)s1	x	x	x	-129	99	i	0.9
58	Cc1ccccc1C(=O)Nc1nnc(-c2cccnc2)o1	x	x	x	2	99	i	0.94
59	CC(=O)C1=C(C)NC(=O)NC1c1cccc([N+](=O)[O-])c1O (configuration not stated)	x	7	111	-1	109	i	0.89
60	CN(C)c1ccc(/C=N/NC(=O)C(=O)/C=C2\NC3(CCCC3)Cc3ccccc32)cc1	-2.5	8	52	3	128	i	0.97
61	C/C(=N\NC(=O)c1cccnc1)c1nnn(-c2nonc2N)c1C	x	-8	78	-10	102	i	1
62	O=C(NCc1ccccc1)NC1(C(=O)N2CCN3CCCC3C2)CCCCC1 (configuration not stated)	-0.6	-119	83	-10	106	i	0.95
63	Cc1ccccc1N=CC1=C(O)c2ccccc2C1=O	x	-26	94	-5	103	i	1
64	O=C(NCc1ccc2c(c1)OCO2)c1cc(-c2ccccn2)nc2ccccc12	x	-89	38	-3	112	i	1
65	CCOC(=O)c1sc2nc3c(SCC(=O)O)cc(C(=O)c4cc(F)ccc4O)cn3c(=O)c2c1C	-1.8	14	142	-17	95	i	1.1
66	NC1=NC(=O)/C(=C/c2cccs2)S1	-1.7	x	x	-10	98	i	0.99
67	COc1ccc(C(=O)COC(=O)c2nn(C)c(=O)c3ccccc23)c(OC)c1	x	-14	104	0	116	x	x
68	NC(=O)NCc1ccc(C(=O)OCc2ccncc2)cc1	0.0	-5	140	-2	101	i	1
69	CCCNC(=O)Cn1cnc2sc(C(=O)N3CCN(Cc4ccc5c(c4)OCO5)CC3)c(C)c2c1=O	x	42	172	-3	103	i	0.98
70	C=CCN1C(=O)/C(=N/n2cnnc2)c2ccccc21	-0.2	0	89	3	103	i	1
71	CCn1nnnc1SCC(=O)Nc1nc(C)c(C)s1	-2.8	-100	90	-1	83	i	0.97
72	CCSc1nnc(-c2cccnc2)n1-c1ccc(C)c(Cl)c1	8.9	-23	177	7	99	i	0.93
73	Cn1c(-c2ccc3nc(N)sc3c2)nc2cc(N)ccc21	-0.5	-13	123	-1	104	i	0.97
74	CC(=O)Nc1cccc(C(=O)/C=C/c2ccc(F)cc2)c1	x	x	x	-10	90	i	0.67
75	COc1ncnc2c1oc1nc(CC(C)C)c3c(c12)CC(C)(C)OC3	0.5	23	84	-9	105	i	0.86
76	Nc1nc(CSc2ccccc2)nc(N2CCCCC2)n1	x	x	x	-1	108	i	0.8
77	CCOC(=O)Cn1c(=O)n(Cc2ccco2)c(=O)c2ccc(C(=O)NCCc3ccccc3)cc21	-0.3	-35	181	-9	99	i	0.91
78	COc1cc(/C=N/NC(=O)Cn2cnc3c2c(=O)n(C)c(=O)n3C)cc(OC)c1OC	x	x	x	x	102	i	0.97
79	COCCNC(=O)c1ccc2c(=O)n(Cc3ccco3)c(SCC(=O)NC3CCCC3)nc2c1	-1.4	x	x	-2	104	i	1.3
80	Cc1ccc(NC(=O)CNS(=O)(=O)c2cccs2)cc1F	-2.0	-29	91	4	109	i	0.94
81	O=c1[nH]c(SCc2ccc(F)cc2Cl)nc2ccccc12	x	64	133	7	101	i	0.88
